# Source: PubChem BioAssay (Fisher Drug Discovery Resource Center)
# NPYLR7 ag – activates Aedes aegypti NPYLR7 receptor. HEK293T NPYLR7/Galpha15, GCaMP6s calcium fluorescence. activation, % at 10 µM. actives 0.15% (n = 270,000); in the data active means activation above about 40%;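 further: 0% = vehicle and 100% = reference agonist at the receptor; some compounds past the cut are filed as inactive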
# NPYLR7 ag max-min – further read-out of NPYLR7 ag, marked with its call; activation, %; measured here: Max-Min RFU normalised activation; some inactives read as strong as hits;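 span of the calcium signal over five minutes; 0% = vehicle and 100% = native peptide agonist; compound fluorescence can raise it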
# An asterisk follows results filed as active; & = joins results of further samples.
SMILES,NPYLR7 ag,NPYLR7 ag max-min
CN1CC2(CCCN(Cc3ccc4occc4c3)CC2)OC1=O (stereo not drawn),5,6
CC(C)(C)C(=O)N1CCN(C(c2ccccc2)c2ccc(Cl)cc2)CC1 (stereo not drawn),25,7
OC(Cc1ccccc1)CN(CCc1nc(-c2ccc(Br)cc2)no1)Cc1ccco1 (stereo not drawn),-11,0
CCCCN1C(=O)c2ccc(C(=O)Nc3ccccn3)cc2C1=O,3,0
Clc1ccc(OCc2nc3c4cnn(-c5ccc(Cl)cc5)c4ncn3n2)cc1,6,2
Cc1nc(CCN)cc(N2CCCC2c2nonc2C)n1 (stereo not drawn),1,2
O=S(=O)(c1ccccc1)N1CCCN(c2cc(Oc3ccc(F)c(Cl)c3)ncn2)CC1,-9,-7
Cc1ccccc1CCN1CCC(CN(C(=O)c2ccc3n[nH]nc3c2)C2CCCC2)CC1,-3,-8
CC(Cl)C(=O)Nc1ccc(C2SCC(=O)N2c2ccc3c(c2)CCC3)cc1 (stereo not drawn),18,15
Cc1ccc(O)c(NC(=O)CN2C(=O)c3ccccc3C2=O)c1,-9,-14
Cc1ccccc1CN(CCN1CCOCC1)CC(C)(C)O,34,40
Cc1cc(C)nc(NN=Cc2cc(Br)cc(Br)c2O)n1,-1,-4
CCC(NC(=O)CC(=O)Nc1ccc(C)c(Cl)c1)c1nc(C)no1 (stereo not drawn),2,-5
Cc1nc(NC(=O)c2c(C)nn(CC(C)C)c2Cl)sc1C,8,1
CCOCCCN(CC(=O)N(Cc1ccccc1)Cc1cccs1)C(=O)Nc1c(Cl)cccc1Cl,9,15
C=CCn1c(C2CC(=O)N(c3cccc(Cl)c3)C2)nc2ccccc21 (stereo not drawn),2,-4
N#Cc1ccc(CSc2nnc(N)s2)cc1,-9&-1,-19&-4
CN1CCC2(CC1)CN(Cc1ccccc1C(=O)O)CCN2C,-6,-8
COc1ccc(C)cc1NC(=O)NCCNc1cc(-n2nc(C)cc2C)ncn1,-10,-18
CC1(C)ON=C(c2ccco2)N(Cc2ccc(F)cc2)C1=O,10,1
O=C1CC(c2ccccc2)Cc2c1cnc1nc(N3CCOCC3)[nH]c(=O)c21 (stereo not drawn),2,24
COC(=O)c1c(C)[nH]c(C(=O)C(C)OC(=O)C2CC2C)c1C (stereo not drawn),6,12
O=C(c1cccc(C(F)(F)F)c1)N(Cc1cccc(OCc2nc(CO)cs2)c1)Cc1ccco1,-1,11
Cc1cc(C)c2oc(=O)n(C3CCN(C(=O)c4cc(Cl)cnc4Cl)CC3)c2c1,5,5
CCn1c(Cn2cnc([N+](=O)[O-])n2)nnc1SC,-1,-4
CC(NC(=O)c1coc(CN(Cc2ccc(C(F)(F)F)cc2)C2CC2)n1)c1ccccc1 (stereo not drawn),17,3
CN(CC1CCN(CC(O)c2ccccc2)CC1)C(=O)c1ccccc1 (stereo not drawn),-1,5
COCCNC(=O)c1ccc2c(c1)N(C)C(CC(=O)Nc1cnccc1C)CO2 (stereo not drawn),4,5
NC(=O)c1c(SCc2c(Cl)cccc2Cl)sc2c(O)cc(=O)[nH]c12,0,-1
COc1ccc(OC)c(NC(=O)C2(C)CCN2CC2CC2)c1 (stereo not drawn),-5,-6

# Reformatted: 3 of the compounds above
COCCNC(=O)c1ccc2c(c1)N(C)C(CC(=O)Nc1cnccc1C)CO2 (stereo not drawn)
  NPYLR7 ag: 4; NPYLR7 ag max-min: 5

NC(=O)c1c(SCc2c(Cl)cccc2Cl)sc2c(O)cc(=O)[nH]c12
  NPYLR7 ag: 0; NPYLR7 ag max-min: -1

COc1ccc(OC)c(NC(=O)C2(C)CCN2CC2CC2)c1 (stereo not drawn)
  NPYLR7 ag: -5; NPYLR7 ag max-min: -6

# Already shown: 6 of the compounds above.
SMILES,NPYLR7 ag,NPYLR7 ag max-min
CN1CC2(CCCN(Cc3ccc4occc4c3)CC2)OC1=O (stereo not drawn),5,6
CC(C)(C)C(=O)N1CCN(C(c2ccccc2)c2ccc(Cl)cc2)CC1 (stereo not drawn),25,7
OC(Cc1ccccc1)CN(CCc1nc(-c2ccc(Br)cc2)no1)Cc1ccco1 (stereo not drawn),-11,0
CCCCN1C(=O)c2ccc(C(=O)Nc3ccccn3)cc2C1=O,3,0
Clc1ccc(OCc2nc3c4cnn(-c5ccc(Cl)cc5)c4ncn3n2)cc1,6,2
Cc1nc(CCN)cc(N2CCCC2c2nonc2C)n1 (stereo not drawn),1,2

# (list continues)
SMILES,NPYLR7 ag,NPYLR7 ag max-min
COc1ncccc1C1CC(=O)Nc2cc3c(cc21)oc(=O)n3C (stereo not drawn),4,-2
S=c1[nH]nc(-c2cccc(Cl)c2)o1,5&-1,8&6
COc1nn2ccsc2c1C(=O)NCC1CCN(C)CC1,18,11
Cc1cc(C)c2c(=O)[nH]n(C3CCOC(C)(C)C3)c2n1 (stereo not drawn),15,6
CC(C)(C)NC(=O)NCc1nnnn1-c1ccc(F)cc1,3,0
C=c1c([N+](=O)[O-])cccc1=c1[nH]/c(=C/c2coc3ccccc3c2=O)c(=O)o1,-13,-14
Cc1cccc(NC(=O)Cn2nc3c(cc2=O)CCCC3)c1C,-26,-33
Nc1onc(-c2ccc(Cl)cc2)c1-c1ccc(F)cc1,18,16
COc1c(C)cnc2c1c(=O)n(CC(=O)NC(C)(C)C)c(=O)n2C,1,0
CCC(C)N(CCC(=O)NC(C)c1ccccc1)c1nc(Cc2ccc(F)cc2)ns1 (stereo not drawn),-6,-2
CCS(=O)(=O)N1CCC(O)(c2ccc(C)cn2)CC1,-4,-8
CC(=O)c1cccc(NC(=O)c2cc(-c3ccc(C)c(C)c3)nc3ccccc23)c1,2,3
CCc1ccc(N2CCn3c2nc2c3c(=O)n(C)c(=O)n2C)cc1,13,10
Cn1ncc(Br)c1C(=O)Nc1nc2ccc(Br)cc2s1,-1,6
CCCCN(Cc1ccc(C(=O)NO)cc1)C(=O)Nc1ccccc1,19,2
O=C(NC1CC1)C1CCCN(C2CCN(C(=O)c3cccc4nccnc34)CC2)C1 (stereo not drawn),21,13
COc1cccc(CSc2nnc(CNC(=O)Nc3ccc(OC)cc3OC)n2-c2ccc([N+](=O)[O-])cc2)c1,0,8
CCn1cc(-c2n[nH]c(=S)n2C)ccc1=O,-1,0
C=CC(=O)N1CCN(c2nc3ccccc3nc2C)CC1,24,25
Cc1noc(C)c1S(=O)(=O)NC(c1ccccc1)c1ccccn1 (stereo not drawn),-5,-6
Cc1cc(NC(=O)N2CCN(C(=O)c3ccc(C(F)(F)F)cc3)CC2)no1,-2,-1
O=C(Nc1ccc(F)cc1F)C12CC3CC(C1)CC(C(=O)Nc1ccc(F)cc1F)(C3)C2,-1,-2
O=C(CN1C(=O)CSC1c1ccc(Cl)c(Cl)c1)N1CCCC1 (stereo not drawn),23,18
COC(=O)c1ccc(Cl)c(S(=O)(=O)N2CCC(c3ccn[nH]3)CC2)c1,0,-2
CN(C)CC1(O)CCCN(C(=O)Nc2ccc(-c3ccccc3)cc2)CC1 (stereo not drawn),9,7
COc1ccc(-c2cc3c(SCc4ccccc4)nccn3n2)cc1,0,-4
Cn1nc(C(=O)N2CCC(CCC(=O)NC3CCN(Cc4ccccc4)C3)CC2)ccc1=O (stereo not drawn),3,-1
C=C(C)Cn1c(SCC(=O)N/N=C\C=C\c2ccccc2OC)nnc1-c1ccc(Br)cc1,-2,8
CCC1CCc2c(sc(NC(=O)c3c(-c4c(Cl)cccc4Cl)noc3C)c2C(N)=O)C1 (stereo not drawn),0,0
c1cncc(-c2nc3cnccn3c2NC2CCCCC2)c1,2,-1
COCCN(Cc1cnn(C)c1)C(=O)C1CCNC1 (stereo not drawn),8,8
COc1cc(C)ccc1OCC(=O)NC1CCSc2ccccc21 (stereo not drawn),-5,-8
C=CCOC(=O)CC1Sc2ccccc2NC1=O (stereo not drawn),4,6
COc1cccc(C(CN2CCN(S(=O)(=O)c3ccccc3Cl)CC2)OCc2cccc(Cl)c2)c1 (stereo not drawn),16,8
CC(CNCc1cnc(-c2ccc3ccccc3c2)nc1)Oc1cccnc1 (stereo not drawn),4,4
Cc1nnc2c3nnc(C)n3c3ccccc3n12,12,7
COC(=O)c1ccccc1NC(=O)CSc1nc2c(-c3ccccc3)c[nH]c2c(=O)n1C,3,1
COC(=O)CSc1nc(C)cc(-c2ccccc2)c1C#N,-4,-9
COc1ccc(OCC(=O)N=Nc2c(O)[nH]c3ccc(F)cc23)cc1,0,-10
O=C(COc1ccc(C(=O)c2ccccc2)cc1)NCCn1nc(-c2cccs2)ccc1=O,1,0
COc1ccc(CN(Cc2ccco2)C(=O)c2ccccc2Cl)cc1OS(=O)(=O)c1ccc(NC(C)=O)cc1,25,29
CCOC(=O)c1cn2nc(-c3ccccc3)nc2nc1C,0,18
CCOC(=O)CCC(=O)N1CCN(c2ccc(NC(=O)COC)cn2)CC1,-9,-1
Cc1cccc(NC(=O)NCCS(=O)(=O)c2c(C)[nH]c3ccccc23)c1,4,1
O=C(NCCC(=O)N1CCOCC1)c1cc(F)ccc1-c1ccccc1,-8,-8
Cc1cn2c3c(=O)n(Cc4ccc(Cl)cc4)c(=O)n(C)c3nc2n1Cc1ccco1,4,-1
Nc1ccnc(CNS(=O)(=O)c2ccc(CCCCl)cc2)n1,-5,174
O=C(Nc1cccc(C(F)(F)F)c1)N1CCC2(CC1)NCCNC2=O,6,3
O=C(CCl)N1CCN(Cc2c(F)cccc2Cl)CC1,-3,-5
CCOC(=O)CC1CCCCN1Cc1nc(-c2ccc(OC)cc2F)oc1C (stereo not drawn),-10,-12
N#Cc1ccccc1-c1ccc(-c2c(-c3ccccc3)ncn2C2CCOC2)o1 (stereo not drawn),2,2
O=C(/C=C/c1ccc(Br)cc1)Nc1nc2ccccc2s1,4,3
CCOC(=O)c1cnc(-c2ccncc2)nc1NCc1cccc(F)c1F,-6,-12
COCCN(Cc1ccc(C)cc1)Cc1nccn1C,5,3
Cc1noc(C)c1CN(C)C(=O)NC(C)c1ccc2c(c1)CCCC2 (stereo not drawn),-1,-5
C=CCn1c(SCc2ccc(/C=C/c3ccccc3)cc2)nnc1-c1cc(-c2ccccc2)nc2ccccc12,-5,-8
CCOc1ncccc1CNC(=O)c1cc(Cl)c2c(c1)OCO2,3,1
CC(=O)N1CCN(C(=O)c2cn(C)cc3c(=O)n(-c4ccccc4)nc2-3)CC1,5,2
COc1ccc(S(=O)(=O)N2CCC3(CCCNC3)C2)cc1OC (stereo not drawn),0,0
FC(F)(F)c1ccc(N2CCN(c3nc(-c4ccccc4C(F)(F)F)nc4ccccc34)CC2)nc1,2,2

# Continuation:
SMILES,NPYLR7 ag,NPYLR7 ag max-min
CCN(Cc1ccncc1)C1CCCN(C(=O)Cn2cc(C)c(=O)[nH]c2=O)C1 (stereo not drawn),-3,-3
O=C1NC(=S)N/C1=C/c1cc([N+](=O)[O-])ccc1Cl,4,2
CN(CCCN1c2ccccc2CCc2ccccc21)C(=O)c1ccccc1F,-6,-12
Cc1cc(NCC(=O)N(C)CCC#N)ccc1C(N)=O,18,16
CCN1CCN(c2c(CN(C(=O)Nc3cccc(Cl)c3)C3CC3)c(C)nn2-c2cccc(F)c2)CC1,14,23
CC1(C)CC(NS(=O)(=O)CC23CCC(CC2=O)C3(C)C)CC(C)(C)N1 (stereo not drawn),3,5
COc1ccc(N2CC(NC(=O)NCCn3c(C)cc4ccccc43)CC2=O)cc1 (stereo not drawn),-19,-15
CC1(C(=O)Nc2ccc3c(c2)OCCO3)CCN1C(=O)Cc1ccccc1 (stereo not drawn),-4,-4
CC(Nc1ccc(S(C)(=O)=O)cc1S(C)(=O)=O)c1ccc2c(c1)OCCCO2 (stereo not drawn),3,4
Cc1c(/C=C2/C=c3ccccc3=C2O)c(=O)n(-c2ccccc2)n1C,18,15
CC(C)(CNC(=O)N1CCC2(CC1)OCCO2)c1ccc(Cl)cc1,4&6,0&3
O=C(OC(c1ccccc1)c1ccccn1)C1CCC1 (stereo not drawn),1,-2
COc1ccc(Br)cc1C1SCCN1S(C)(=O)=O (stereo not drawn),2,-2
CCS(=O)(=O)Oc1ccc(C)cc1-c1nc2cc(Cl)ccc2o1,-4,-2
Cc1nc2nc(CC(=O)N3CCOCC3)nn2c(C)c1Cl,-1,0
CC(c1ccccc1)N(Cc1ccc(Cl)c(Cl)c1)Cc1nc(C(=O)NC2CC2)co1 (stereo not drawn),17,30
CC(=O)Nc1cccc(-c2c(C)nn(CC(=O)O)c2C)c1,2,0
CC1(C(=O)NS(=O)(=O)c2cccc(C#N)c2)CCN1C(=O)C1(c2ccc(Cl)cc2)CC1 (stereo not drawn),8,4
O=C(N/N=C\c1ccccc1)c1ccc(=O)[nH]n1,3,5
CCOn1c(=O)c(-c2cc3ccccc3o2)[n+]([O-])c2ccccc21,18,8
CCOC(=O)CN1CCN(c2ccc(Cl)cc2C)C(=O)C1C (stereo not drawn),-15,-11
O=C(c1cccs1)N(Cc1ccc(F)cc1F)CC1CC(c2ccc(Cl)cc2)=NO1 (stereo not drawn),25,29
COc1cc(OC)cc(C(=O)N2CCC(n3c(=O)oc4ccc(F)cc43)CC2)c1,34,30
O=C(Nc1nc2ccc(Br)cc2s1)c1c(O)c2ccccc2[nH]c1=O,19,17
N#Cc1cccc(NC(=O)C(c2cc(Br)cs2)N2CCOCC2)c1 (stereo not drawn),-2,-4
COC(=O)c1cc(N2C(=O)/C(=C/c3ccc(Cl)cc3)C=C2c2ccccc2)ccc1Cl,5,-2
c1cc2n(c1)CCCN(Cc1ccc3c(c1)OCCO3)C2c1ccsc1 (stereo not drawn),-13,-8
Cc1c(Cl)cccc1N=Cc1nc(-c2cccc3ccccc23)oc1O,-2,-6
Cc1csc(=Nc2ccccc2)n1N1CCOCC1,-5,-8

# Not all compounds are listed (hit frequency here may not be typical).
